Assay outcomes from PubChem.
MgrA-DNA mod = S. aureus MgrA activity modulators, primary screen, biochemical, S. aureus Newman, fluorescence polarization | MgrA-DNA binding | inhibition, %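 (about 10 µg/mL by stock and volumes)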 | 84,000 compounds, 0.13% hits;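 active means above 50% in either of two replicates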;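 further: 0% = protein plus DNA without compound and 100% = DNA alone without protein; higher means less MgrA bound to DNA so lower polarization; one replicate is shown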
S aureus helic = inhibitors of S. aureus replicative helicase, primary screen, biochemical, fluorescence unwinding readout. purified S. aureus helicase, fluorescence unwinding assay; about half of the hits fall short of the stated cut. inhibition, %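 (tested at about 80 µM)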. 120,000 compounds, 0.05% hits. AID 485395, 2010;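 active means both duplicates at 50% or more, or one of them with a favoured structure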;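 further: 0% = mean of negative control wells and 100% = mean of positive control wells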
* hit, by the source's call; . = not tested or not shown.

SMILES	MgrA-DNA mod	S aureus helic
COc1cccc2c1CCN(Cc1cccc(C)c1)C2=O	.	-2.0
CCOC(=O)Cn1c(=O)oc2cc(S(=O)(=O)N(C)c3ccc(OC)cc3OC)ccc21	.	-19.0
CC(=O)Nc1ccc(SCC(=O)Nc2cccc3nsnc23)cc1	.	28.0
CC(C(=O)O)N1CCCC1=O (stereo not given)	-3.4	-2.0
O=C(N/N=C/c1ccc(Cl)cc1)c1cc(=O)nc2sccn12	.	-5.0
CC1CCCCC1N=C1NC(C)(C)CS1 (stereo not given)	-1.4	10.0
O=C(CN1CCSc2ccccc21)NC1CC1	.	3.0
O=C(Cn1c(-c2ccccc2)cc2ccccc21)NC1=NCCS1	.	-13.0
CCCN(Cc1nnc(-c2ccco2)o1)C(=O)/C=C/c1c(C)nn(C)c1C	.	-7.0
NC1(C(=O)O)CCCC1	0.9	.
Cc1c2cnn(CC(=O)Nc3ccc4c(c3)OCCO4)c(=O)c2c(C)n1Cc1ccc(F)cc1	.	-11.0
Cc1ccc(-c2nc(CS(=O)(=O)CC(=O)NCC3CCCO3)c(C)o2)cc1 (stereo not given)	0.9	17.0
CCCCC1(CC)NC(=S)N(c2ccc(C)c(C)c2)N1 (stereo not given)	.	20.0
CCCN(CCC)C(=O)Cn1c(=O)n(CCCCC(=O)NCc2ccc3c(c2)OCO3)c(=O)c2ccccc21	.	-21.0
Cc1nnsc1-c1onc(C)c1C(N)=O	-2.4	.
O=C1c2ccccc2C(=O)N1CCCc1nn2c(-c3cccnc3)nnc2s1	25.9	31.0
CC(C)(C)C1CCc2c(sc3nc(-c4ccccc4)cn23)C1 (stereo not given)	.	-16.0
CN(C)c1nc(-c2ccccc2)cc(-c2ccccc2)c1C#N	.	2.0
COc1ccc(CCNC(=O)CN2C(=O)c3cccc4cccc2c34)cc1	.	9.0
Cc1ccc(C)c(OC(=O)c2cccnc2Cl)c1C	-8.7	-12.0
O=C(O)CNS(=O)(=O)c1ccccc1	-1.1	14.0
CCSc1nnc(NC(=O)c2oc3ccccc3c2COC)s1	.	-9.0
O=c1ccn(Cc2ccccc2)c(=O)n1Cc1ccccc1	.	-17.0
CC1CC(=O)Nc2ccccc2N1C(=O)CN1CCCCC1 (stereo not given)	.	3.0
N#CCn1c(COC(=O)c2ccc3c(c2)OCO3)nc2ccccc2c1=O	.	-18.0

Later entries
SMILES	MgrA-DNA mod	S aureus helic
O=C(OCC(=O)c1c[nH]c2ccccc12)C1=COCCO1	.	-3.0
COc1ccc(C2C(C(=O)N3CCCC3)CC(=O)N2c2ccc(OC)cc2)cc1 (stereo not given)	.	43.0
O=C(NC1CCCC1)c1[nH]nc2c1CCc1ccccc1-2	.	0.0
Cc1c(C(=O)c2ccncc2)c2ccccn2c1CCC#N	.	8.0
O=C(c1ccc(=O)[nH]n1)N1CCN(S(=O)(=O)c2ccc(Br)s2)CC1	.	6.0
O=C(O)CS(=O)(=O)Cc1ccccc1	1.2	8.0
COC(=O)c1ccc(NC(=O)COc2cccc3ccccc23)cc1	-1.1	4.0
Nc1nc(N)nc(-c2ccc(Cl)cc2)n1	3.5	.
Nc1ccc(Oc2ccc(C(=O)O)c(C(=O)O)c2)cc1	10.4	1.0
O=C(O)c1ccc2snnc2c1	-1.8	.
CN1C(=O)C(C)(C)c2cc(S(=O)(=O)NCCN3CCN(c4ccccc4F)CC3)ccc21	-0.3	5.0
O=C(CC(NC1CCCCC1)C(=O)O)c1ccc(C2CCCCC2)cc1 (stereo not given)	5.0	10.0
O=C(CSc1ccc(Cl)cc1)N1CCc2ccccc21	0.1	1.0
O=C1OC2(CCCC2)OC(=O)C1=Cc1ccc(N2CCOCC2)o1	-13.3	-33.0
CC1CCCN(c2ccc(C(=O)NCc3ccccc3)cn2)C1 (stereo not given)	0.3	10.0
O=C(CN1C(=O)c2ccccc2C1=O)Nc1ccc(F)cc1	-1.1	.
O=C(Nc1nc2nc(-c3ccccc3)cc(-c3ccccc3)n2n1)c1ccccc1	2.0	5.0
CC(C)(CS)C(=O)N1CCC[C@@H]1C(=O)O	2.6	.
Cc1ccc(C(=O)C2CCN(C(=O)c3cccs3)CC2)cc1	-1.3	.
CC(C)S(=O)(=O)c1csc(C(=O)NN)c1-n1cccc1	.	12.0
CC(C)c1cccc(NC(=O)CCc2n[nH]c(=O)[nH]c2=O)c1	.	7.0
O=C(O)c1ccc(-n2ncc(Cl)c(Cl)c2=O)cc1	.	6.0
O=C1c2ccccc2C(=O)N1CSc1ncccn1	0.5	9.0
Cc1c(C(=O)O)nn(-c2ccc(Cl)cc2)c(=O)c1C#N	-0.7	2.0
NS(=O)(=O)c1ccc(NC(=O)CN2CCc3ccccc32)cc1	-0.1	.

Next records.
SMILES	MgrA-DNA mod	S aureus helic
CC(CCc1ccco1)Nc1nc(-c2ccccc2F)no1 (stereo not given)	.	-1.0
Cc1cc(C(=O)N2C=CC(C(F)(F)F)=NCC2)nn1C	0.5	.
CN1CCN(S(=O)(=O)c2ccc(CNC(=O)c3ccccc3)s2)CC1	4.1	.
COC(=O)C1=C(C)N(C(C)c2ccccc2)C(=O)C1 (stereo not given)	0.6	-10.0
O=C(CCCn1c(=S)[nH]c2ccccc2c1=O)N1CCc2ccccc21	.	4.0
CCOC(CSc1nc2ccccc2[nH]1)OCC	.	12.0
CCOC(=O)c1ccc2[nH]c(C)c(C)c2c1	.	-31.0
N#Cc1cnc(SCC(=O)N2CCCCC2)nc1N	3.1	-21.0
Clc1ccc(OCc2cn3ccccc3n2)cc1	.	8.0
O=C(Nc1ccccc1N1CCCCC1)c1ccc2ncccc2c1	-3.6	17.0
O=C(CNc1ccccc1-c1ccccc1)NCc1ccccc1	1.4	-21.0
O=S(=O)(/C=C/c1ccccc1)c1ccc(F)cc1F	.	15.0
CCN(CC)Cn1c(=S)sc2ccccc21	4.5	0.0
CN(C)/C=C1/C(=O)N(c2ccccc2)N=C1C(F)(F)F	.	30.0
CC(=O)c1cc2cc(Br)ccc2o1	-3.1	.
COc1cc2c(cc1OC)C(C#N)N(C(=O)c1ccccc1)C=C2 (stereo not given)	4.4	17.0
O=C(OCc1cc(=O)oc2cc(O)ccc12)c1ccc(C(F)(F)F)cc1	.	-3.0
Cc1nc2cc(C(=O)c3ccccc3)ccc2[nH]c1=O	.	-2.0
Cc1ccc2o/c(=N\O)c(C(N)=O)cc2c1	.	29.0
Cc1ccc(N2CC(NC(=O)OCCN(C)C)CC2=O)cc1 (stereo not given)	.	10.0
COc1ccc(CCN2CC(=O)N3CCCC(C4=CC(=O)C=CC4=O)=C3C2=O)cc1OC	.	36.0
O=C(Nc1ccccc1)c1scc2c1CCCC2	0.2	1.0
CCC1CCCCN1C(=O)COC(=O)c1ccc(C#N)cc1 (stereo not given)	-5.4	0.0
CCSc1nnc(CNC(=O)C23CC4CC(CC(C4)C2)C3)n1CC	.	-9.0
COc1ccc(C2=NS(=O)(=O)N(C)C(C(=O)N3CCC(C(N)=O)CC3)=C2)cc1	6.5	16.0

Continued.
SMILES	MgrA-DNA mod	S aureus helic
CCc1c(O)nc(N)[nH]c1=O	-0.4	0.0
CCCCN(C)C(=O)Cn1c(=O)oc2ccccc21	.	-3.0
CCc1ccc(NC(=O)NC(C)c2c(-n3cccc3)sc3c2CCCC3)cc1 (stereo not given)	4.2	14.0
COc1ccccc1C1(CC(=O)O)CCOC(C)(C)C1 (stereo not given)	-0.9	-10.0
CCOC(=O)c1oc2ccc(Br)cc2c1CSc1nc2ccccc2c(=O)[nH]1	.	-9.0
CCCn1c(C(O)(c2c(C)nn(CCO)c2N)C(F)(F)F)nc2ccccc21 (stereo not given)	.	15.0
Oc1ccc(Br)cc1C=Nc1cc(C(F)(F)F)ccc1Cl	1.1	.
O=C(O)CC1(CC(=O)Nc2ccc(Cl)cc2)CCCC1	0.3	7.0
O=C(c1ccccc1F)n1c2c(c3ccccc31)CCCC2	-0.6	-18.0
Cc1sc2ncn(CC(=O)NCC(=O)O)c(=O)c2c1C	.	12.0
CCOc1ccc2ccccc2c1C=C1C(=O)N(C)C(=S)N(C)C1=O	15.2	12.0
CCOC(=O)c1sc(-n2[nH]c(C)cc2=O)nc1C	-3.6	0.0
NC(=O)C1CCN(Cn2c(SCc3ccccc3)nc3ccccc32)CC1	.	7.0
N=S(Cc1ccc(Br)cc1)Nc1ccccc1 (stereo not given)	-3.7	.
O=C(O)/C=C1\SC(=O)NC1=O	.	11.0
CC1(C)CC(=O)C2=C(C1)Nc1ccccc1NC2c1ccc(-c2ccc([N+](=O)[O-])cc2Cl)o1 (stereo not given)	0.3	.
CC1CCc2c(sc(NC(=O)c3sc4ccccc4c3Cl)c2C(=O)OC(C)C)C1 (stereo not given)	-0.6	.
O=C(OCCSC1=NS(=O)(=O)c2ccccc21)c1ccccc1	10.7	19.0
CCOC(=O)c1cc(C#N)c(SC)nc1-c1ccccc1	.	19.0
O=C(CC1(O)C(=O)Nc2ccc(Br)cc21)c1cccc([N+](=O)[O-])c1 (stereo not given)	-1.3	.
CCOC(=O)c1cc(C)[nH]c1C	-1.3	.
FC(F)(F)c1cc(NCCC2CCCCN2)cc(C(F)(F)F)c1 (stereo not given)	-1.5	.
CCOC(=O)c1ccc(-c2ccc(C=C(C#N)C#N)o2)cc1	6.6	-1.0
Cc1nnc2c(NCCN3CCN(c4cccc(Cl)c4)CC3)nc3ccccc3n12	.	6.0
Cc1c(-c2ccnn2C(=O)c2ccc(C(F)(F)F)cc2)sc2ccccc12	-0.7	.

The list goes on (6 carried over from the part before).
SMILES	MgrA-DNA mod	S aureus helic
O=C(CC1(O)C(=O)Nc2ccc(Br)cc21)c1cccc([N+](=O)[O-])c1 (stereo not given)	-1.3	.
CCOC(=O)c1cc(C)[nH]c1C	-1.3	.
FC(F)(F)c1cc(NCCC2CCCCN2)cc(C(F)(F)F)c1 (stereo not given)	-1.5	.
CCOC(=O)c1ccc(-c2ccc(C=C(C#N)C#N)o2)cc1	6.6	-1.0
Cc1nnc2c(NCCN3CCN(c4cccc(Cl)c4)CC3)nc3ccccc3n12	.	6.0
Cc1c(-c2ccnn2C(=O)c2ccc(C(F)(F)F)cc2)sc2ccccc12	-0.7	.
O=C(CCSCc1cccc(F)c1)N1CCc2ccccc21	.	12.0
CC(=O)NCc1nc2ccccc2n1Cc1ccccc1F	.	-22.0
c1ccc(OCc2nnc3n2N=C(c2ccccc2)CS3)cc1	.	12.0
COc1ccc(-n2nc(C(=O)N3CCN(C)CC3)nc2-c2ccccc2)cc1	-1.4	6.0
OC(COC(c1ccc(Cl)cc1)c1ccc(Cl)cc1)CN1CCCC1 (stereo not given)	-1.2	-6.0
CC(C)c1ccc2c(c1)c1c3c(cncn32)CCC1	-2.5	13.0
CSc1nc2ccccc2n1CC(=O)Nc1c(C)cccc1C	-0.8	2.0
CN(C)c1ncnc2c1cnn2C	.	-6.0
C1CCC(CNCC2CCCO2)CC1 (stereo not given)	1.3	-3.0
CNc1sc(C(=O)c2ccc(OC)c(OC)c2)c(N)c1C#N	7.2	6.0
Cc1onc(C(=O)NN)c1-c1csc(-c2ccccc2)n1	.	13.0
CC(C)Oc1ccc(C(=O)NCC(=O)N2CCN(S(=O)(=O)/C=C/c3ccccc3)CC2)cc1	.	-9.0
Cc1sc2nc(CN3CCC(C)CC3)[nH]c(=O)c2c1C	.	9.0
CCC(C(=O)NC1CCCC1)N(Cc1ccc2c(c1)OCO2)C(=O)c1snc(C(N)=O)c1N (stereo not given)	1.4	0.0
COc1cccc(NC(=O)c2cc3ccccc3oc2=O)c1	0.2	17.0
CCOC(=O)CN(c1ccc(C)cc1)C1SC(=O)N(Cc2cccc(C(=O)O)c2)C1=O (stereo not given)	.	18.0
CCOC(=O)c1sc2nc(C)cc(C)c2c1N	0.4	.
CCOC(=O)c1ccc2nc(NC(=O)c3ccco3)sc2c1	.	-9.0
CC(CO)NC(=O)OCC1c2ccccc2-c2ccccc21 (stereo not given)	3.5	.
CCOC(=O)c1c(CNC(C)C)oc2ccc(OC)cc12	-1.6	10.0
CN1C(=O)NC(c2ccc(O)cc2)C2=C1CN(CCO)C2=O (stereo not given)	-2.1	11.0
COC(=O)c1sccc1N/N=C(\C#N)S(C)(=O)=O	0.3	.
CN(C)N=Nc1ccc(Oc2ccccc2)cc1	2.6	3.0
NNC(=O)Cc1nc(-c2cnccn2)no1	1.5	.
NNC(=O)c1ccccc1OCc1ccc(Cl)cc1	.	-7.0

An excerpt from above in order of molar mass, largest number first:
SMILES	MgrA-DNA mod	S aureus helic
CCOC(=O)CN(c1ccc(C)cc1)C1SC(=O)N(Cc2cccc(C(=O)O)c2)C1=O (stereo not given)	.	18.0
CSc1nc2ccccc2n1CC(=O)Nc1c(C)cccc1C	-0.8	2.0
c1ccc(OCc2nnc3n2N=C(c2ccccc2)CS3)cc1	.	12.0
COC(=O)c1sccc1N/N=C(\C#N)S(C)(=O)=O	0.3	.
CN(C)c1ncnc2c1cnn2C	.	-6.0

Additional structures follow.
SMILES	MgrA-DNA mod	S aureus helic
CC1CC(C)CN(CC(O)Cn2c3ccccc3c3ccccc32)C1 (stereo not given)	.	26.0
COC1=C/C(=C/c2c(N)n3c(SC(C)C)nsc3nc2=O)C=CC1=O	1.2	-77.0
COc1ccccc1N1CC(C)(C)C(=O)N=C1Sc1ccc(C(F)(F)F)cc1[N+](=O)[O-]	-2.6	.
Cc1ccc(OC(C)C(=O)N2CC(=O)Nc3ccccc32)c(C)c1 (stereo not given)	-1.6	18.0
COc1ccc(C(=O)Nc2nnc(C3=COCCO3)o2)cc1	.	6.0
Cc1cc(C)n(C(=O)CCN2C(=O)c3ccccc3C2=O)n1	1.6	.
CCOc1cccc(NC(=O)C2CC(=O)N(Cc3ccc4c(c3)OCO4)C(=Nc3ccc(OC)cc3)S2)c1 (stereo not given)	2.4	.
CSc1nc2ccc(NC(=O)c3ccccc3C(F)(F)F)cc2s1	0.3	.

An excerpt; count on the stated rates, not on these rows.
